Screens as filed in PubChem.
miR-21 reporter: raises the signal of a miR-21 reporter; HeLa miR-21 FLuc reporter, luciferase, 48 h; Potency, µM (top dose mostly 38.3 µM), inactives show top-dose reporter change, positive = more light; 340,000 tested, under 10 active; AID 2288; active = well fitted rising curve with a large enough effect; inconclusive = small, poorly fitted or top-dose-only effect; inactive = no such curve, though single readings can be large or run the other way;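 also: % of control where 0% means no effect; miR-21 action dims this reporter so a rising signal means less miR-21 action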
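HeLa miR-21-FLuc reporter line, endogenous miR-21; 2000 cells/well in DMEM/10% FBS; compound titration up to ~40uM final, 48 h, 37 degree Celsius; luciferase detection reagent, 15 min lysis, CCD luminescence.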
Numbers without * were called inactive; u = inconclusive; [ ] = another dose, or the depositor's remark. A portion of the library; rates above refer to the full screens.

SMILES	miR-21 reporter
COc1ccc(-c2nc(CSc3nc4ncccc4[nH]3)c(C)o2)cc1OC	1%
O=C(Nc1ccccc1C(F)(F)F)n1ncc2cc(Cl)ccc21	-15%
Cc1ccc(NC(=O)Cn2nnc(C(=O)NCCc3ccccc3)c2N)cc1C	-16%
COc1ccc(-c2cn3nc(N4CCC(C(=O)Nc5cc(Cl)ccc5OC)CC4)sc3n2)cc1	-13%
COc1ccc(N2C(=O)CCSC23C(=O)N(Cc2ccc(F)cc2)c2ccccc23)cc1Cl (stereo not given)	29%
CCOC(=O)C1CCN(C(=O)Cn2ncc3c4ccccc4n(Cc4ccc(F)cc4)c3c2=O)CC1	u
COc1ccc(N(CC(=O)N2CCN(c3cccc(OC)c3)CC2)S(=O)(=O)c2c(C)noc2C)cc1	5%
COc1ccc(NC(=O)c2cc(C)nc3c2c(C)nn3-c2cccc(Cl)c2C)c(OC)c1	-1%
CCOc1ccc(C(=O)Nc2ccc3nc(SCc4ccccc4)sc3c2)cc1	-1%
O=C(Nc1ccccc1)C1CCN(S(=O)(=O)c2ccc3c(c2)CCCN3C(=O)C2CCC2)CC1	8%
O=C(C1CCN(S(=O)(=O)c2cccc3nonc23)CC1)N1CCN(c2ccccc2)CC1	16%
COC(=O)c1c(NC(=O)COc2ccc(C)cc2Br)sc2c1CCCC2	-1%
CCOc1cccc2sc(N(Cc3cccnc3)C(=O)c3ccc(C#N)cc3)nc12	-3%
O=C(NC1(C(F)(F)F)C(=O)Nc2c1c(=O)[nH]c(=O)n2CCc1ccccc1)c1ccc(Cl)cc1Cl (stereo not given)	-1%
COc1ccc(Cn2ccc3nc(C)c(C(=O)Nc4ccc(F)cc4)cc3c2=O)cc1	7%
CCn1ccc2cc(S(=O)(=O)N3CCC(C(=O)NCCc4ccc(C)cc4)CC3)ccc21	9%
CC(C)CCNC(=O)c1ccc2c(c1)NC(=O)C(CS(=O)(=O)Cc1cccc(Br)c1)N2 (stereo not given)	15%
Cc1cccc(NC(=O)N2CCC(CN3CCc4ccccc4C3)CC2)c1C	-4%
Cc1ccc(CN2CCSc3ccc(C(=O)NCCc4ccccc4)cc32)cc1	-33%
CCOc1ccc(CCNC(=O)c2cn(C)c3ccc(S(=O)(=O)N4CCCCCC4)cc3c2=O)cc1OCC	1%
CSc1ncc(C(=O)N2CCN(c3ccc(Cl)cc3)CC2)c(C)n1	-7%
Cc1cccc(NC(=O)Cn2nc(N3CCN(c4ccccc4)CC3)ccc2=O)c1C	-2%
COc1cccc(CNC(=O)CSc2nc(=O)[nH]c3c2CCC3)c1	1%
COc1ccc(-c2nc(CN3CCC(C(=O)NCCCN4CCN(c5ccccc5F)CC4)CC3)c(C)o2)cc1OC	20%
CCn1cc2nc(SCc3ccccc3Cl)n(Cc3ccc(OC)cc3)c(=O)c2n1	1%
CCOC(=O)C1CCCN(C(=O)c2nn(-c3ccc(OC)cc3)c(=O)c3c2c2ccccc2n3C)C1 (stereo not given)	6%
CCN(C(=O)c1cn(-c2cccc(OC)c2)c(=O)c2ccccc12)c1ccccc1C	12%
O=C(NCc1ccccc1)C(=O)NCC(c1cccs1)S(=O)(=O)c1cccs1 (stereo not given)	2%
O=S(=O)(c1ccccc1)c1nc(-c2ccc(F)cc2)oc1NCc1ccccc1	-5%
CCOc1ccc(CCNC(=O)CN2C(=O)COc3ccc(S(=O)(=O)N4CCC(C)CC4)cc32)cc1	8%
CC(=O)Nc1ccc(NC(=O)C2CCN(c3cnccn3)CC2)cc1	8%
O=C(OCc1cc(=O)n2nc(-c3cccs3)sc2n1)c1ccccc1	-23%
CC(C)CNc1cc(NC2CCCCC2)c2c3c(onc13)-c1ccccc1C2=O	10%
CCc1ccc(C2CC(=O)Nc3cc4c(cc32)OCO4)cc1 (stereo not given)	6%
COc1ccc(C)cc1N(C)C(=O)c1sc2nc3n(c(=O)c2c1C)CCCCC3	13%
COC(=O)c1ccccc1NC(=O)COCc1cc(-c2cccs2)on1	-4%
CCOc1ccccc1NC(=O)Nc1cc(C(=O)NCc2ccc(C)cc2)ccc1N1CCCC1	-9%
Cc1cc(C)cc(-n2ccnc2SCC(=O)Nc2cccc3ccccc23)c1	-2%
O=C(NCCc1ccccc1)c1ccc2c(c1)N(Cc1ccccc1)C(=O)c1ccccc1S2=O (stereo not given)	2%
CN(C(=O)Cn1cc(S(=O)(=O)N2CCN(c3ccccc3F)CC2)c2ccccc2c1=O)c1ccc(Cl)cc1	2%

Grouped by structure, the entries above with a CF3 group
SMILES	miR-21 reporter
O=C(Nc1ccccc1C(F)(F)F)n1ncc2cc(Cl)ccc21	-15%
O=C(NC1(C(F)(F)F)C(=O)Nc2c1c(=O)[nH]c(=O)n2CCc1ccccc1)c1ccc(Cl)cc1Cl (stereo not given)	-1%

(next part)
SMILES	miR-21 reporter
CCCCOc1ccccc1C(=O)Nc1onc2c1CCCC2	-5%
CCN(c1ccccc1)S(=O)(=O)c1ccc(NC(=O)c2nc(SC(C)C)ncc2Cl)cc1	23%
COc1ccc(C2=CC(c3ccccc3Cl)n3nc(-c4ccc(Cl)cc4)nc3N2)cc1 (stereo not given)	3%
CCCC(=O)N1CCc2cc(OC)c(OC)cc2C1COc1ccc2c(C)cc(=O)oc2c1 (stereo not given)	-8%
Cc1ccc(NC(=O)CSc2cn(CC(=O)N3CCCCCC3)c3ccccc23)cc1	-2%
CCn1cc(C(=O)NCc2ccc(Cl)cc2)c(=O)c2cc(S(=O)(=O)N3CCc4ccccc4C3)ccc21	0%
O=C(Nc1ccc(F)cc1)Nc1nnc(SCC(=O)N2CCCCC2)s1	10%
COC(=O)c1ccc(CSc2nc3c(c(=O)[nH]2)CCC3)cc1	-1%
Cc1cc(Cl)ccc1NS(=O)(=O)c1cc2[nH]c(=O)c(=O)[nH]c2cc1C	1%
CC(=O)N1CCCc2cc(S(=O)(=O)N3CCCC(C(=O)Nc4ccc(C)c(F)c4)C3)ccc21 (stereo not given)	26%
COc1ccc(N2CCN(CCCNC(=O)c3cnn(-c4ccc(C)cc4)c3-n3cccc3)CC2)cc1	6%
COc1ccc(CC(=O)N2CCc3cc(OC)c(OC)cc3C2COc2ccc3c(C)cc(=O)oc3c2)cc1OC (stereo not given)	-29%
CCOc1ccc(CNC(=O)C2CCCN(S(=O)(=O)N(CC)c3ccc(OCC)cc3)C2)cc1 (stereo not given)	-1%
CC(C)(C)OC(=O)N1CCC(c2c(C(=O)NCc3ccccn3)cnn2-c2ccccc2)CC1	3%
Cc1ccc(C)c(NS(=O)(=O)c2cc3c4c(c2)C(C)C(=O)N4CCC3)c1 (stereo not given)	15%
Cc1ccc(-n2nc3c(N4CCC(C(=O)NCCc5ccccc5)CC4)nnc(C)c3c2C)cc1	2%
Cc1ccc(CNC(=O)C2CCC(CNS(=O)(=O)c3ccc4c(c3)CCCC(=O)N4)CC2)cc1 (stereo not given)	-4%
CCOC(=O)C1CCN(c2nc3c(S(=O)(=O)c4ccccc4)nnn3c3ccsc23)CC1	-15%
COc1ccc(CC(=O)NCc2ccc3c(c2)CCN3C(=O)c2ccccc2)cc1OC	u
CCOc1ccc(-c2cc(NC(=O)c3cccc(Cl)c3)c(C(=O)OC)s2)cc1	-4%
Cc1cccc(N2C(=O)c3ccc(Br)cc3C2=O)n1	0%
CCCCC1CCC(C(=O)N2CC(=O)Nc3ccc(F)cc3C2c2ccc(F)cc2)CC1 (stereo not given)	u
Cc1ccc(N2CC(C)Cn3c2nc2c3c(=O)n(CC(=O)O)c(=O)n2C)cc1 (stereo not given)	0%
O=C(CCC1N=C2c3ccccc3N=C(SCc3ccc(F)cc3)N2C1=O)NCCc1ccccc1 (stereo not given)	4%
O=c1[nH]c(SCc2ccccc2)nc2c1CCCC2	-39%
Cc1cc(C)n(-c2nc3ccccc3nc2Nc2cccc(C(F)(F)F)c2)n1	-5%
Cc1ccc(Cl)cc1NC(=O)CN1C(=O)COc2ccc(S(=O)(=O)N3CCCCCC3)cc21	-3%
CC(C)c1ccc(S(=O)(=O)c2nnn3c2nc(NC2CCCC2)c2sccc23)cc1	-16%
CCOC(=O)C1=C(CN2CCN(c3cc(C)ccc3C)CC2)NC(=O)NC1c1ccc(Cl)cc1 (stereo not given)	30%
CCN(Cc1ccccc1)C(=O)C1CCN(S(=O)(=O)c2ccc3c(c2)CCCN3C(C)=O)CC1	4%
CCOC(=O)c1sc(N2C(=O)c3oc4ccc(C)cc4c(=O)c3C2c2ccccc2F)nc1C (stereo not given)	1%
COc1cccc(NS(=O)(=O)c2cc3c4c(c2)C(C)C(=O)N4CCC3)c1 (stereo not given)	6%
CNC(=O)COc1ccc(NC(=O)CCn2nc(-c3ccc(C)cc3)c3ccccc3c2=O)cc1	20%
COc1cccc(NC(=O)CNC(=O)Cn2c(C)cc3ccccc3c2=O)c1	1%
O=C(Nc1ccc2nc(SCC(=O)N3CCOCC3)sc2c1)c1ccc(Br)cc1	6%
COc1cccc(NC(=O)c2c(C)nn(-c3cccc(C)c3)c2-n2cccc2)c1	17%
COc1ccc(Cl)cc1N(C)C(=O)c1ccc2c(=O)n3c(nc2c1)CCCCC3	-7%
COc1cc(C2c3c(-c4ccccc4O)n[nH]c3C(=O)N2Cc2ccncc2)cc(OC)c1OC (stereo not given)	6%
Cc1ccc(CSc2oc(-c3cccs3)nc2S(=O)(=O)c2ccccc2)cc1	2%
CCOc1ccccc1C(=O)Nc1nc2c(s1)CC(C)CC2 (stereo not given)	-59%

By substructure, the compounds so far with a thiophene ring, fused or not (nine)
SMILES	miR-21 reporter
COC(=O)c1c(NC(=O)COc2ccc(C)cc2Br)sc2c1CCCC2	-1%
O=C(NCc1ccccc1)C(=O)NCC(c1cccs1)S(=O)(=O)c1cccs1 (stereo not given)	2%
O=C(OCc1cc(=O)n2nc(-c3cccs3)sc2n1)c1ccccc1	-23%
COc1ccc(C)cc1N(C)C(=O)c1sc2nc3n(c(=O)c2c1C)CCCCC3	13%
COC(=O)c1ccccc1NC(=O)COCc1cc(-c2cccs2)on1	-4%
CCOC(=O)C1CCN(c2nc3c(S(=O)(=O)c4ccccc4)nnn3c3ccsc23)CC1	-15%
CCOc1ccc(-c2cc(NC(=O)c3cccc(Cl)c3)c(C(=O)OC)s2)cc1	-4%
CC(C)c1ccc(S(=O)(=O)c2nnn3c2nc(NC2CCCC2)c2sccc23)cc1	-16%
Cc1ccc(CSc2oc(-c3cccs3)nc2S(=O)(=O)c2ccccc2)cc1	2%

(continued)
SMILES	miR-21 reporter
CCSc1nnc2c(n1)OC(c1ccc(C)s1)Nc1ccccc1-2 (stereo not given)	-33%
CCOc1ccc(-c2cc3nc(C4CCN(C(=O)OC(C)(C)C)CC4)c(C(=O)Nc4ccc(C)c(F)c4)cn3n2)cc1	-16%
CC1=C(C(=O)Nc2cccnc2)C(c2cccc(Br)c2)n2nc(SCc3ccccc3)nc2N1 (stereo not given)	-1%
Cc1cccc(CSc2cn(CC(=O)N3CCCC3)c3ccccc23)c1	-44%
CCc1ccc(-c2[nH]c3c(c2-c2c(-n4cccc4)n(C)c(=O)[nH]c2=O)c(=O)[nH]c(=O)n3C)cc1	0%
Cc1ccc(C)c(NC(=O)C2CCN(c3ncnc4c3nc3n4CCCCC3)CC2)c1	-6%
Cc1cccc(NC(=O)CSc2nc3ccc(NC(=O)c4ccco4)cc3s2)c1	9%
CCOc1ccc(-c2cc3c(=O)n(Cc4nc(-c5ccc(OC(C)C)cc5)oc4C)ccn3n2)cc1Cl	-25%
CCOc1ccc(N(CC(=O)Nc2ccc(F)cc2F)S(=O)(=O)c2c(C)[nH]c(=O)[nH]c2=O)cc1	4%
CCOc1ccccc1NC(=O)Cn1ncc2c(=O)oc3ccc(C)cc3c21	0%
O=C1c2[nH]nc(-c3ccccc3)c2C(c2ccccc2)N1c1cccc(C(F)(F)F)c1 (stereo not given)	u
COc1cccc(-c2cc(C(=O)Nc3c(C)nn(Cc4ccccc4Cl)c3C)no2)c1	27%
CCOc1ccc(CCNC(=O)C2CCN(C(=O)N3CC(CC)Oc4ccc(C)cc43)CC2)cc1 (stereo not given)	4%
CCc1ccc2oc(-c3cc(NC(=O)C(C)C)cc(C)c3O)nc2c1	-1%
CCN(CC)c1cc(C)c2cc(NC(=O)/C=C/c3cc(OC)c(OC)c(OC)c3)ccc2n1	15%
CC1CCN(S(=O)(=O)c2cn(CC(=O)Nc3ccc(F)cc3)c(=O)c3ccccc23)CC1	12%
CCc1ccccc1NC(=O)CN(c1ccc(OC)cc1)S(=O)(=O)c1c(C)n[nH]c1C	16%
CCOc1ccc(NC(=O)CC2C(=O)N(c3ccc(Cl)cc3)C(=O)N2Cc2cccs2)cc1 (stereo not given)	11%
Cc1ccc(-c2nc(CS(=O)(=O)CC(=O)NCc3ccc(Cl)cc3)c(C)o2)cc1	1%
Cc1cccc(CC(=O)N2CC(=O)Nc3ccc(C)cc3C2c2ccc(F)cc2)c1 (stereo not given)	26%
CC(Nc1ccc(-c2nc(-c3ccco3)no2)cc1[N+](=O)[O-])c1ccccc1 (stereo not given)	-3%
CCc1nn2c(=O)cc(COC(=O)c3ccc(NC(=O)COc4ccc(C)cc4)cc3)nc2s1	-20%
CC1CCN(C(=O)CN2c3ccc(C(C)C)cc3-c3ccccc3S2(=O)=O)CC1	6%
N#Cc1ccc2c(c1)C[C@]1(CCCCN3C(=O)c4ccccc4C3=O)Oc3cc(-c4ccccc4)oc(=O)c3[C@H]2O1	-1%[7.66 µM]
COc1ccc(NCc2cccn2-c2nnc(N3CCCCC3)s2)cc1OC	-22%
Cc1cccc(CSc2ncc(Cl)c(C(=O)Nc3nc4ccc(F)cc4s3)n2)c1	-2%
CCCN1C(=O)C(Cc2nc3ccccc3c(=O)n2CC)c2cc(Br)ccc21 (stereo not given)	u
